Bioassay records from PubChem.
NOMO-1 viab: NOMO-1 AML cell viability reduction, primary screen, STK33 inhibitor project, CellTiter-Glo luminescence. NOMO-1 AML viability, 72 h. hit rate 7.5% among 37,000. AID 2330, 2010. inhibition, % (concentration not given with the values);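 active means most replicates above 80%; inconclusive means exactly half above 80%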;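 further: wells of about 30 µL received 25 nL stock; 0% = median of vehicle wells and 100% = reference inhibitor level; the first replicate is given; inactives centre near 10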
The depositor's hits bear a star; ? = inconclusive. These rows are one share of the data; rates above refer to the full screens.

SMILES | NOMO-1 viab
C[C@H]1CN([C@@H](C)CO)C(=O)c2cc(NC(=O)NC3CCCCC3)ccc2O[C@H]1CN(C)C(=O)Nc1cccc2ccccc12 | -0.5
CCOc1ccccc1NC(=O)C1C2C=CC(C2)C1C(=O)O (configuration not stated) | -0.7
COc1cc(NC(=O)CSc2nnc(-c3ccncc3)n2-c2ccc(C)cc2)cc(OC)c1 | 21.1
C[C@@H]1CN([C@@H](C)CO)C(=O)c2cccc(NC(=O)c3ccncc3)c2O[C@H]1CN(C)S(=O)(=O)c1cccs1 | -8.0
C[C@@H]1CN([C@H](C)CO)C(=O)c2cccc(NC(=O)Nc3ccc(F)cc3)c2O[C@H]1CN(C)Cc1ccncc1 | -3.6
CNC[C@H]1Oc2ccc(NS(=O)(=O)c3ccc(Cl)cc3)cc2CC(=O)N([C@H](C)CO)C[C@H]1C | -21.6
C[C@H]1CN([C@@H](C)CO)C(=O)c2cc(NC(=O)Nc3ccc(C(F)(F)F)cc3)ccc2O[C@H]1CN(C)C(=O)Nc1ccc2c(c1)OCO2 | 42.3
COC(=O)[C@@H]1C[C@@]23C=CC[N+]4([O-])CC[C@@]5(c6ccccc6N[C@@]15C2C)[C@H]34 (some centres not stated) | 16.6
COc1ccc(NC(=O)N(C)C[C@H]2Oc3ccc(NS(=O)(=O)c4ccc(F)cc4)cc3C(=O)N([C@@H](C)CO)C[C@@H]2C)cc1 | 28.4
O=[N+]([O-])c1ccccc1CN1CCN(Cc2cccc(Oc3ccccc3)c2)CC1 | -7.3
C[C@H]1CN([C@@H](C)CO)C(=O)c2cc(NC(=O)c3ccncc3)ccc2O[C@@H]1CN(C)Cc1ccc(C(=O)O)cc1 | 11.9
COc1cccc(OC)c1C(=O)Nc1ccc(Cl)c(-c2nc3ncccc3o2)c1 | -7.4
Cc1noc(C)c1NC(=O)N(C)C[C@@H]1Oc2ccc(NC(=O)Nc3ccc(C(F)(F)F)cc3)cc2CC(=O)N([C@@H](C)CO)C[C@@H]1C | -2.6
COc1ccc(NC(=O)Nc2ccc3c(c2)C(=O)N([C@H](C)CO)C[C@H](C)[C@@H](CN(C)Cc2ccc(C(=O)O)cc2)O3)cc1 | 10.6
Cc1cccc(NC(=O)CSc2nnc(-c3ccc(N)cc3)n2C)c1 | 40.1
COc1ccc(CN(C)C[C@@H]2Oc3ccc(NC(=O)CCN4CCOCC4)cc3C(=O)N([C@H](C)CO)C[C@H]2C)cc1 | -10.0
C[C@@H]1CN([C@H](C)CO)C(=O)c2cc(NC(=O)CCCN(C)C)ccc2O[C@@H]1CN(C)C(=O)Nc1cccc2ccccc12 | 28.0
CCOC(=O)C(Sc1cc(C)nc(N)n1)C(C)=O (configuration not stated) | -11.6
CCOC(=O)NC(=S)Nc1ccc(F)cc1 | -25.3
COc1ccc2cc(Br)ccc2c1CC(=O)Nc1cccnc1 | -3.6
CCOC(=O)Oc1c(OC)cc(C(=O)O[C@@H]2C[C@@H]3CN4CCc5c([nH]c6cc(OC)ccc56)[C@H]4C[C@@H]3[C@H](C(=O)OC)[C@H]2OC)cc1OC | 56.1
COc1ccc(S(=O)(=O)Nc2ccc3c(c2)CC(=O)N([C@@H](C)CO)C[C@@H](C)[C@@H](CN(C)S(=O)(=O)c2cccs2)O3)cc1 | 17.6
CCn1cnc2cc(NCc3nc4ccccc4n3C)ccc21 | 15.7
C[C@@H]1CN([C@H](C)CO)C(=O)Cc2cc(NC(=O)C3CCCCC3)ccc2O[C@@H]1CN(C)C(=O)Nc1ccc2c(c1)OCO2 | 15.3
C[C@H]1CN([C@@H](C)CO)C(=O)c2cccc(NS(=O)(=O)c3cn(C)cn3)c2O[C@H]1CN(C)Cc1ccc(Cl)c(Cl)c1 | 27.4
C[C@@H]1CN([C@H](C)CO)C(=O)c2cc(NC(=O)CCCN(C)C)ccc2O[C@@H]1CN(C)C(=O)Nc1ccccc1 | 1.7
C[C@@H]1CN([C@H](C)CO)C(=O)c2cccc(N(C)C)c2O[C@@H]1CN(C)C(=O)Nc1ccc(C(F)(F)F)cc1 | -0.1
CC(C)=CCC/C(C)=C/CCC1(C)Oc2c(c(O)cc3c2CN(C(CCC(=O)O)C(=O)O)C3=O)CC1O (configuration not stated) | 1.3
Cc1noc(C)c1NC(=O)Nc1cccc2c1O[C@@H](CN(C)C(=O)Nc1ccc(C(F)(F)F)cc1)[C@H](C)CN([C@H](C)CO)C2=O | 12.5
C[C@@H]1CN([C@H](C)CO)C(=O)c2cccc(NC(=O)C3CCOCC3)c2O[C@H]1CN(C)C(=O)Nc1ccc(F)cc1 | -3.8
Cc1noc(C)c1NC(=O)Nc1cccc2c1O[C@@H](CN(C)Cc1ccc(-c3ccccc3)cc1)[C@H](C)CN([C@@H](C)CO)C2=O | 68.1
C[C@@H]1CN([C@@H](C)CO)C(=O)Cc2cc(N(C)C)ccc2O[C@@H]1CN(C)S(=O)(=O)c1ccccc1 | 24.9
COc1ccccc1NC(=O)CCN1C(=O)C2C3CCC(C3)C2C1=O (configuration not stated) | 35.7
Cc1ccc(S(=O)(=O)N(C)C[C@H]2Oc3ccc(NC(=O)C4CCCCC4)cc3CC(=O)N([C@H](C)CO)C[C@H]2C)cc1 | -3.5
COc1ccc(C2C(C(=O)c3cccs3)C(=O)C(=O)N2CCCN2CCOCC2)cc1 (configuration not stated) | 24.6
CN1C(=O)c2ccc(NC(=O)CCn3cnc4ccccc4c3=O)cc2C1=O | -11.1
C[C@@H]1CN([C@@H](C)CO)C(=O)c2cc(NS(C)(=O)=O)ccc2O[C@@H]1CN(C)C(=O)Nc1ccc(C(F)(F)F)cc1 | -12.1
C[C@H](CO)N1C[C@H](C)[C@@H](CN(C)C(=O)Nc2ccccc2)Oc2ccc(NS(C)(=O)=O)cc2C1=O | 0.7
COc1ccc(S(=O)(=O)Nc2ccc3c(c2)CC(=O)N([C@H](C)CO)C[C@H](C)[C@H](CN(C)S(=O)(=O)c2cn(C)cn2)O3)cc1 | 17.3
Cc1noc(C)c1S(=O)(=O)Nc1cccc2c1O[C@@H](CN(C)S(=O)(=O)c1ccc(F)cc1)[C@@H](C)CN([C@@H](C)CO)C2=O | 35.3
C[C@@H]1CN([C@H](C)CO)C(=O)c2cc(NC(=O)C3CCCCC3)ccc2O[C@H]1CN(C)Cc1ccccc1 | 40.6
Cc1ccc(CCC(=O)Nc2ccc(/C=C/c3ccccc3)cc2)o1 | 53.7
Cc1[nH]nc2c1C1=C(C(=O)CCC1)C(c1ccc(N(C)C)cc1)N2 (configuration not stated) | 0.4
COc1ccc(-c2nnc(SCC(=O)Nc3ccc4cn[nH]c4c3)n2-c2ccc(Cl)cc2)cc1 | 5.4
CC(C)NC(=O)N(C)C[C@@H]1Oc2ccc(NS(=O)(=O)c3cn(C)cn3)cc2CC(=O)N([C@H](C)CO)C[C@H]1C | 12.8

Reformatted: results already given.
canonical_smiles,NOMO-1 viab
COc1cc(NC(=O)CSc2nnc(-c3ccncc3)n2-c2ccc(C)cc2)cc(OC)c1,21.1
Cc1ccc(CCC(=O)Nc2ccc(/C=C/c3ccccc3)cc2)o1,53.7
C[C@@H]1CN([C@@H](C)CO)C(=O)Cc2cc(N(C)C)ccc2O[C@@H]1CN(C)S(=O)(=O)c1ccccc1,24.9
C[C@@H]1CN([C@@H](C)CO)C(=O)c2cccc(NC(=O)c3ccncc3)c2O[C@H]1CN(C)S(=O)(=O)c1cccs1,-8.0
CCOC(=O)Oc1c(OC)cc(C(=O)O[C@@H]2C[C@@H]3CN4CCc5c([nH]c6cc(OC)ccc56)[C@H]4C[C@@H]3[C@H](C(=O)OC)[C@H]2OC)cc1OC,56.1
C[C@H](CO)N1C[C@H](C)[C@@H](CN(C)C(=O)Nc2ccccc2)Oc2ccc(NS(C)(=O)=O)cc2C1=O,0.7

(list continues)
SMILES | NOMO-1 viab
COc1ccc(-n2c(SCC(=O)Nc3ccccc3C(F)(F)F)nnc2-c2ccccc2)cc1 | 4.5
Cc1cc(C)c2oc(-c3ccc(C)c(NC(=O)COc4ccccc4C)c3)nc2c1 | 3.0
CCCC(O)/C(=C/C1=C(C(=O)CC(CC(=O)O)OC(N)=O)C(=O)c2cccc(O)c2C1=O)CC(C(=O)O)[N+](C)(C)C (configuration not stated) | 108.3*
CN(C)C(=O)c1cc(Cl)ccc1Cl | 26.0
Cc1ccc(-c2csc3nnc(SCC(=O)c4ccc5c(c4)OCCO5)n23)cc1C | 55.2
C[C@H]1CN([C@@H](C)CO)C(=O)Cc2cc(NC(=O)C3CC3)ccc2O[C@H]1CN(C)C(=O)Nc1cccc2ccccc12 | 14.6
COc1ccc(NC(=O)N(C)C[C@@H]2OCCCC[C@@H](C)Oc3ccc(NC(=O)NC4CCCCC4)cc3C(=O)N([C@H](C)CO)C[C@@H]2C)cc1 | -2.2
COC(=O)C1(Cc2ccc(O)cc2)OC(=O)C(OC)=C1c1ccc(O)cc1 (configuration not stated) | 28.6
COc1ccccc1CC(=O)Nc1ccc(-c2nc3ccccc3[nH]2)cc1 | 135.0*
C[C@@H]1CN([C@@H](C)CO)C(=O)c2cccc(NC(=O)Nc3ccc(C(F)(F)F)cc3)c2O[C@@H]1CN(C)Cc1ccc(C(=O)Nc2ccccc2N)cc1 | 128.4*
C[C@H](CO)N1C[C@H](C)[C@H](CN(C)Cc2ccc(Oc3ccccc3)cc2)Oc2c(NS(=O)(=O)c3ccc(Cl)cc3)cccc2C1=O | 52.6
COc1ccc(NC(=O)Nc2cccc3c2O[C@@H](CN(C)C(=O)Nc2ccc(C(F)(F)F)cc2)[C@H](C)CN([C@H](C)CO)C3=O)cc1 | 38.8
C[C@@H]1CN([C@H](C)CO)C(=O)c2cccc(NS(C)(=O)=O)c2O[C@@H]1CN(C)C | -13.3
C=C(C(=O)O)[C@@H]1CC[C@@]2(C)CC(=O)C=C(C)C2C1 (some centres not stated) | 14.2
CSc1ccc(/C=N/n2nnnc2Nc2ccccc2)cc1 | 94.9*
C[C@@H]1CN([C@H](C)CO)C(=O)c2cccc(NC(=O)Nc3ccc(C(F)(F)F)cc3)c2O[C@@H]1CN(C)S(=O)(=O)c1ccc(Cl)cc1 | 117.3*
COc1ccc(NC(=O)N(C)C[C@H]2Oc3ccc(NC(=O)C4CCCCC4)cc3CC(=O)N([C@@H](C)CO)C[C@@H]2C)cc1 | -9.7
COc1ccc(NC(=O)N(C)C[C@@H]2Oc3ccc(NC(=O)Cc4ccccc4)cc3C(=O)N([C@H](C)CO)C[C@@H]2C)cc1 | -15.0
C[C@@H]1CN([C@H](C)CO)C(=O)c2cccc(NC(=O)c3cnccn3)c2O[C@H]1CN(C)Cc1ccc2c(c1)OCO2 | 31.6
C[C@@H]1CN([C@H](C)CO)C(=O)c2cccc(NC(=O)c3ccc(-c4nccs4)cc3)c2O[C@H]1CN(C)S(C)(=O)=O | -4.7
C[C@@H]1CN([C@H](C)CO)C(=O)Cc2cc(NC(=O)NC3CCCCC3)ccc2O[C@@H]1CN(C)Cc1ccc(Cl)c(Cl)c1 | 113.7*
COc1ccccc1NC(=O)CSc1nc(-c2ccccc2)cc(=O)[nH]1 | -23.2
C[C@@H]1CN([C@H](C)CO)C(=O)Cc2cc(NS(C)(=O)=O)ccc2O[C@H]1CN(C)Cc1ccc(C(F)(F)F)cc1 | 13.7
CC(C)NC(=O)N(C)C[C@@H]1Oc2ccc(NC(=O)CCN3CCOCC3)cc2CC(=O)N([C@H](C)CO)C[C@@H]1C | -3.4
COc1ccc(NC(=O)c2ccc(OCC(=O)Nc3cccc(C)c3C)cc2)cc1Cl | 13.5
CC1(C)C(=O)C=C[C@@]2(C)C1CC(=O)[C@@]1(C)C3=CC(=O)O[C@@H](c4ccoc4)[C@]3(C)CCC12 (some centres not stated) | 26.6
O=C(Cc1ccccc1[N+](=O)[O-])Nc1cc(Cl)ccc1Oc1ccccc1 | 38.7
C[C@@H]1CN([C@@H](C)CO)C(=O)c2cc(NC(=O)Nc3ccc(C(F)(F)F)cc3)ccc2O[C@@H]1CN(C)Cc1ccc(C(=O)Nc2ccccc2N)cc1 | ?
C[C@H]1CN([C@@H](C)CO)C(=O)Cc2cc(NC(=O)CCN3CCOCC3)ccc2O[C@H]1CN(C)S(=O)(=O)c1ccc(Cl)cc1 | 6.6
CCOc1cc(C2NC(=S)NC(C)=C2C(=O)Nc2ccccc2C(=O)OC)cc(Br)c1O (configuration not stated) | 22.4
C[C@@H]1CN([C@@H](C)CO)C(=O)c2cccc(N(C)C)c2O[C@H]1CN(C)Cc1ccc(-c2ccccc2)cc1 | 75.9
C[C@@H]1CN([C@@H](C)CO)C(=O)c2cccc(NS(=O)(=O)c3ccc(Cl)cc3)c2O[C@@H]1CN(C)CC1CC1 | 20.9
O=C(Nc1ccccc1)C1CC(=O)n2ncnc2N1 (configuration not stated) | 31.5
C[C@@H]1CN([C@@H](C)CO)C(=O)c2cc(NC(=O)CCC(F)(F)F)ccc2O[C@@H]1CN(C)C(=O)Nc1ccc(C(F)(F)F)cc1 | 1.3
CC(Sc1nc(N)cc(N)n1)C(=O)Nc1ccc(Cl)cc1 (configuration not stated) | 17.0
Cc1noc(C)c1S(=O)(=O)N(C)C[C@H]1OCCCC[C@@H](C)Oc2ccc(NC(=O)Nc3ccccc3)cc2C(=O)N([C@H](C)CO)C[C@@H]1C | 39.6
Cc1ccc2c(C)c(C(=O)Nc3sc4c(c3C(=O)NCc3ccco3)CCC4)oc2c1 | 102.6*
COc1ccc(-c2nc(C#N)c(NCCN3CCOCC3)o2)cc1 | -17.5
C[C@H]1CN([C@@H](C)CO)C(=O)c2cc(NC(=O)C3CCCCC3)ccc2O[C@H]1CN(C)Cc1ccc(C(=O)Nc2ccccc2N)cc1 | 110.4*

Random excerpt: 2 records from the list
SMILES | NOMO-1 viab
C[C@H](CO)N1C[C@H](C)[C@H](CN(C)Cc2ccc(Oc3ccccc3)cc2)Oc2c(NS(=O)(=O)c3ccc(Cl)cc3)cccc2C1=O | 52.6
C[C@H]1CN([C@@H](C)CO)C(=O)c2cc(NC(=O)C3CCCCC3)ccc2O[C@H]1CN(C)Cc1ccc(C(=O)Nc2ccccc2N)cc1 | 110.4*
